Screens as filed in PubChem BioAssay.
FGF22 binding: binders of recombinant human FGF22 by thermal shift. Q9HCT0. SYPRO orange fluorescence; percent of sucrose octasulfate shift, DMSO zero. calls only at 9.99 µM. hit rate 1.5% among 340,000. AID 651658;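 active = melting point raised past a set limit in the mean and every replicate; three in four hits are not shown here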
MLL AF4-AF9 inh: MLL-AF4/AF9 protein interaction inhibition. P42568. AlphaScreen, biotin-AF4 peptide binding to FLAG-AF9. hit rate 0.47% among 350,000. inhibition, % at 10 µM;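 active = every replicate reaching a set inhibition limit, whatever the replicate mean, cut at about 25% in these data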;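 also: 0% = plate neutral control median and 100% = total signal loss; the record names both 10 and 1 µM as test concentration; the first replicate is given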
Target sequence (P42568 whole entry, looked up): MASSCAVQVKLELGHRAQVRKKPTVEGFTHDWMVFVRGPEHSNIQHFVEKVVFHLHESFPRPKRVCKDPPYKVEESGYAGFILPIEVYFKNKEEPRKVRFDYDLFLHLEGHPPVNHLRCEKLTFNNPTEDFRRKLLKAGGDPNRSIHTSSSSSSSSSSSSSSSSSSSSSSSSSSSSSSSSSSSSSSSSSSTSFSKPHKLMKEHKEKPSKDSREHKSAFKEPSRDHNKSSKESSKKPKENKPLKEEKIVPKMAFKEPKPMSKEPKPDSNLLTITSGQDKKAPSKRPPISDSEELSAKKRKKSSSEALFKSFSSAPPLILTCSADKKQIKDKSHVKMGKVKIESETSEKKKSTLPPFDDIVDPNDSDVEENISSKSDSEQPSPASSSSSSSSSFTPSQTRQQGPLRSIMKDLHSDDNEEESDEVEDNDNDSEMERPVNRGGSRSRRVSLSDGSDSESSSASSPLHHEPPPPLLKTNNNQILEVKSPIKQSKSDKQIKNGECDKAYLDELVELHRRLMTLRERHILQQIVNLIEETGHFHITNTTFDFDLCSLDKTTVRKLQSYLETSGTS
E coli growth: E. coli growth inhibition; Escherichia coli growth, OD600, 23 h; stronger effect = lower value; OD600 absorbance (concentration not given with the values); hit rate 0.21% among 330,000; AID 1053175;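 active = OD600 absorbance below the run mean of sample wells minus 3.6 SD, in any replicate, cut at about 0.56 in these data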;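 also: stock transfer was 300 nL into about 60 µL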
A1 inh: inhibitors of the anti-apoptotic protein A1, read as caspase activation. MEF A1-2A-BIM cells, Caspase-Glo 3/7 luminescence, 3 h; percent of clofoctol response, vehicle zero. caspase activation, % (no concentration beside the values). hit rate 0.066% among 330,000;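 active = over half of replicate activation scores above 10%, or exactly half above 10 with the replicate mean above 10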;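 also: wells of about 30 µL received 50 nL stock; many hits fall short of the cut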
Beta cell apopt: blocks beta cell apoptosis. protection from apoptosis, % (concentration not given with the values). hit rate 0.8% among 300,000. INS-1E cytokine-induced death, ATP luminescence, 48 h; percent of positive-control rescue, neutral wells zero;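 active = all replicates at 75% or more, or half of them and the mean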;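 also: 0% = cytokine-treated negative control wells and 100% = positive control rescue; higher means more ATP so stronger rescue from cytokine killing; wells of about 40 µL received 100 nL stock; the first replicate is given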
UCH37 DUB inh: human UCH37 deubiquitinating enzyme inhibition; Q9Y5K5; purified proteasome/UCH37, Ub-AMC cleavage fluorescence; hit rate 0.33% among 330,000; inhibition, % (no concentration beside the values);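 active = mean of two replicates above 20%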;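 also: 0% = compound-free wells with enzyme and 100% = wells lacking proteasome; stock transfer was 100 nL into about 20 µL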
Target sequence (Q9Y5K5 whole entry, looked up): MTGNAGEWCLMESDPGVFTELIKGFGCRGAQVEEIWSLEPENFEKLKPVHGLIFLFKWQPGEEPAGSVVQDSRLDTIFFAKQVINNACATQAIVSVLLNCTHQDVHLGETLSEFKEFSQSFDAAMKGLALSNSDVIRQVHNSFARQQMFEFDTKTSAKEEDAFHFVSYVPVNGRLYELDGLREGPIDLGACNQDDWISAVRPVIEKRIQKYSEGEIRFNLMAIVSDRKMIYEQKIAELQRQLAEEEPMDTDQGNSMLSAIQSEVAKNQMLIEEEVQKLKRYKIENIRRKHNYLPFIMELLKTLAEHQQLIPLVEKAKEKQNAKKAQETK
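Reagent: Ub-AMC substrate; assay system: Proteasome-associated human UCH37 deubiquitinase; controls: no-proteasome and no-compound wells; read-out: % inhibition of Ub-AMC cleavage fluorescence; timing: 30 min preincubation with enzyme, 25 min cleavage at room temperature; signal: AMC fluorescence from Ub-AMC cleavage, excitation 355 nm, emission 460 nm; buffer or medium: Tris-HCl pH 7.4 plus ovalbumin, ATP-MgCl2, DTT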
T cruzi inh: blocks replication of Trypanosoma cruzi. T. cruzi beta-gal in NIH3T3, luminescence, 90 h. inhibition, % (no concentration beside the values). hit rate 1.4% among 300,000. AID 1885;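 active = mean inhibition across valid replicates above about 55%, limit read from the data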;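 also: signal also drops with host cell toxicity which is not excluded here; 0% = plate median of DMSO wells and 100% = zero luminescence signal; higher percent means less beta-gal luminescence so fewer parasites; stock transfer was 50 nL into about 50 µL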
Ecoli rRNA inh: selective bacterial rRNA inhibition in E. coli; E. coli WT GFP vs humanized-ribosome RFP mutants, fluorescence, 24 h; stronger effect = lower value; DMSO median 0, no signal -100; GFP signal change (wild-type ribosome), % (no concentration beside the values); hit rate 1.6% among 350,000; AID 720706;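 active = significant combined selectivity score with lowered wild-type GFP, culture density cut under 30%, mutant RFP and density less affected; inactive = any of these conditions unmet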; also: one replicate is shown; some compounds called inactive have numbers as strong as hits
Ecoli rRNA inh OD600: also measured in Ecoli rRNA inh; calls as there; OD600 change, %; measured here: OD600 growth;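 optical density of the mix in the first replicate; 0 = DMSO median and -100 = no signal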
Ecoli rRNA inh RFP: further read-out of Ecoli rRNA inh, marked with its call; RFP signal change, %; measured here: RFP humanized mutant strains;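 first replicate; 0 = DMSO median and -100 = no signal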
Numbers without * were called inactive; i = inactive; · = no result given. An excerpt. The share of hits here may be higher or lower than overall.

cpd	canonical_smiles	FGF22 binding	MLL AF4-AF9 inh	E coli growth	A1 inh	Beta cell apopt	UCH37 DUB inh	T cruzi inh	Ecoli rRNA inh	Ecoli rRNA inh OD600	Ecoli rRNA inh RFP
1	O=C(COC(=O)c1cccc(S(=O)(=O)N2CCOCC2)c1)Nc1ccc2c(c1)OCO2	·	·	0.71	0.3	0	0.4	-6	·	·	·
2	CCc1nnc(NC(=O)CN2CCN(Cc3ccccc3C)CC2)s1	i	0.5	0.61	-0.6	-5	1.8	36	8	11	2.4
3	Cc1ccc(Cl)cc1Nc1nc(-c2sc(NC(=O)C(C)(C)C)nc2C)cs1	i	8.4	0.71	1.2	7	1.3	-3	4	1	-10
4	CCOc1ccccc1CNC(=O)Cn1ccc2cc(S(=O)(=O)N3CCC(C)CC3)ccc21	·	·	0.7	0.0	12	-2.1	24	·	·	·
5	O=C(COC(=O)c1cc(Cl)ccc1O)Nc1cc(C(F)(F)F)ccc1N1CCOCC1	i	-1.9	0.72	-0.4	2	0.6	·	-6	-9	1.8
6	CCc1nc(SCC(=O)NNC(=O)C2CCCCC2)c2ccccc2n1	·	·	0.73	-0.3	-6	2.7	4	·	·	·
7	Cc1ccc(N2C(=O)CC(N(O)C3CC(=O)N(c4ccc(C)cc4)C3=O)C2=O)cc1 (centres undefined)	·	·	0.7	0.5	-3	2.0	4	·	·	·
8	Cc1ccc(C(=O)N/C(=C/c2cccc([N+](=O)[O-])c2)C(=O)NCC2CCCO2)cc1 (centres undefined)	i	0.4	0.69	0.5	7	0.0	-9	10	6	-2.2
9	Cc1cc(C)c2cc(CN(CCCO)S(=O)(=O)c3ccccc3F)c(=O)[nH]c2c1	i	0.1	0.66	0.0	-1	-3.0	5	-6	-18	5.8
10	COC(=O)CSC1=C(C#N)C(c2ccc(C)cc2)C2=C(CCCC2=O)N1 (centres undefined)	·	·	0.72	-0.8	-7	-6.9	10	·	·	·
11	NS(=O)(=O)c1ccc(NC(=O)COC(=O)c2ccco2)cc1	i	-4.8	0.64	0.7	-3	4.5	-4	22	17	3.8
12	Cc1cc(C)cc(OCC(=O)N/N=C/c2ccco2)c1	·	-1.1	·	-0.2	-1	·	-16	·	·	·

Next section.
cpd	canonical_smiles	FGF22 binding	MLL AF4-AF9 inh	E coli growth	A1 inh	Beta cell apopt	UCH37 DUB inh	T cruzi inh	Ecoli rRNA inh	Ecoli rRNA inh OD600	Ecoli rRNA inh RFP
13	O=c1cc(O)c2c(=O)n(-c3ccccc3)c3c(c2o1)CCCCCC3	·	·	·	-0.1	-1	-1.7	-13	·	·	·
14	O=C(C[C@@H]1NS(=O)(=O)OC2CCCCC21)c1ccccc1 (some centres undefined)	i	-0.2	·	0.1	2	0.1	-3	10	-2	6.2
15	O=C(CC1C(=O)NCCN1C(=O)Nc1ccccc1)Nc1cccc(C(F)(F)F)c1 (centres undefined)	·	·	0.61	0.7	-11	3.0	-3	·	·	·
16	COc1ccc(CCNc2ncnc3cc(OC)c(OC)cc23)cc1OC	i	-0.1	0.69	·	·	4.9	22	-17	-20	-4.4
17	Cc1ccc(NC(=O)CC(O)(C(F)(F)F)C(F)(F)F)c(Br)c1	·	·	0.63	0.5	9	1.0	-3	-2	-7	-1.9
18	Cc1cccc(NS(=O)(=O)c2cc3c(cc2C)N(C)CCO3)c1	i	9.4	0.7	-0.3	-3	4.2	17	4	0	-7.7
19	O=C(O)CC1C(=O)NCCN1Cc1cccs1 (centres undefined)	i	1.9	0.69	0.2	1	5.3	4	11	15	-1.3
20	COc1ccc(NC(=O)CSc2nnc(Cn3cnc4ccccc43)o2)cc1	·	-2.0	0.67	-0.3	0	1.4	-15	·	·	·
21	CC1CCCCN1S(=O)(=O)c1ccc(C(=O)Nc2nnc(C3CC3)o2)cc1 (centres undefined)	i	3.6	0.73	-0.3	-1	-1.9	-40	-52	-78	-18
22	O=C(Nc1cccc(O)c1)c1ccccc1	·	·	0.71	-4.3	3	3.3	4	·	·	·
23	Cc1ccc(SCc2cn3cc(Cl)ccc3n2)cc1	i	0.1	0.66	-1.2	-18	2.4	-22	-26	-27	5.0
24	COc1cc(C)c(C)cc1S(=O)(=O)N1CCCCC1c1cccnc1 (centres undefined)	·	·	0.74	0.2	3	7.6	42	·	·	·

Later entries.
cpd	canonical_smiles	FGF22 binding	MLL AF4-AF9 inh	E coli growth	A1 inh	Beta cell apopt	UCH37 DUB inh	T cruzi inh	Ecoli rRNA inh	Ecoli rRNA inh OD600	Ecoli rRNA inh RFP
25	O=C(/C=C/Nc1ccc(S(=O)(=O)Nc2ncccn2)cc1)c1ccc(Cl)c(Cl)c1	i	-0.4	0.73	-0.3	0	-39	6	7	10	1.9
26	COc1ccc(S(=O)(=O)N2CCCCCC2)cc1C(=O)NCc1ccccc1Cl	i	9.4	0.6	·	·	2.0	·	-11	-23	2.5
27	CCN(CC)S(=O)(=O)c1ccc(C)c(NC(=O)CNc2cccc(S(=O)(=O)N3CCCC3)c2)c1	i	2.6	0.63	-0.4	·	2.5	13	-5	-10	3.0
28	O=c1c2ccc(Cl)cc2[nH]c(=S)n1CCCN1CCOCC1	i	-7.5	0.66	0.8	-3	2.6	-1	0	-2	-3.7
29	COc1cc2nc(CN(CCC(C)C)Cc3nc4cc(OC)c(OC)cc4c(=O)[nH]3)[nH]c(=O)c2cc1OC	·	·	0.72	0.5	7	-2.1	8	·	·	·
30	COc1ccc(CC(=O)Nc2cccc(SC)c2)cc1	i	-3.1	0.67	-0.3	-8	2.0	16	7	2	-3.1
31	CCOC(=O)c1nncc(-c2ccccc2)n1	i	-1.2	0.69	-0.8	2	0.8	·	1	-11	-8.6
32	CCOc1ccc(C(C)NC(=S)NC2CCCCC2)cc1OCC (centres undefined)	i	0.1	0.66	-0.6	-6	-1.1	-14	-30	-53	1.7
33	Cc1nn(C)cc1C(=O)NNC(=S)Nc1ccccc1	·	·	0.69	-0.2	-15	-0.1	-7	·	·	·
34	Cc1ccc(NC(=S)N/C(=N/S(=O)(=O)c2ccccc2)c2ccccc2)cc1	i	1.2	0.72	-0.5	0	3.6	-24	5	-5	2.7
35	COc1ccccc1C(=O)N1CCCC1(C#N)c1ccccc1 (centres undefined)	·	·	0.7	1.2	-10	5.5	-6	·	·	·
36	COCCCNC(=O)C[C@H]1C[C@H](C(=O)N2CCOCC2)[C@@]2(CCC3CCCC3)c3[nH]c4cc(CCC(=O)N(C)C)ccc4c3CCN2C1=O	i	0.5	0.71	·	·	0.3	·	-6	1	-4.2

(continued)
cpd	canonical_smiles	FGF22 binding	MLL AF4-AF9 inh	E coli growth	A1 inh	Beta cell apopt	UCH37 DUB inh	T cruzi inh	Ecoli rRNA inh	Ecoli rRNA inh OD600	Ecoli rRNA inh RFP
37	CC(=O)c1cccc(NC(=O)c2onc(C)c2Cl)c1	i	-5.0	0.73	·	·	3.6	-4	8	8	0.6
38	Cc1cc(C)nc(SCC(=O)Nc2ccc(S(=O)(=O)Nc3nccs3)cc2)n1	·	·	0.67	1.3	·	2.8	-14	·	·	·
39	COc1ccc(NC(=O)C(=O)NCC2CCCN2S(=O)(=O)c2cccs2)cc1 (centres undefined)	i	0.8	0.72	0.1	·	1.0	7	8	3	-2.1
40	Cc1ccc(C(=O)Nc2ccccc2N2CCCC2)cc1	i	9.4	0.64	0.4	0	-0.4	12	-3	3	-1.3
41	COc1ccc(NC(=O)CC2SC(=Nc3ccccc3)NC2=O)cc1 (centres undefined)	·	·	0.72	1.0	-6	1.5	0	·	·	·
42	O=c1c2c3n(c(=O)nc2[nH]n1-c1ccccc1)CCCCC3	·	·	0.68	-0.2	1	0.5	-10	·	·	·
43	Nc1sc2c(c1C(=O)NC1CCS(=O)(=O)C1)CCC2 (centres undefined)	·	·	0.76	-0.4	-2	0.0	-4	·	·	·
44	Cc1cc(-c2ccccc2)c2ccc(NC(=O)C(C)(C)C)nc2n1	i	-0.9	0.69	0.5	9	-19	11	2	6	2.5
45	N=C1/C(=C\c2ccc(SCc3ccccc3)o2)C(=O)N=C2SC(CC(=O)N3CCOCC3)=NN12	i	·	0.67	0.0	2	11	5	-16	-10	13
46	CCCc1ccc2oc(C(=O)N3CCN(CC(=O)NC(C)C)CC3)c(C)c2c1	i	0.2	0.72	1.0	5	5.5	1	-16	-17	1.3
47	COC(=O)c1c(-c2ccc(Br)cc2)csc1NC(=O)Cc1ccc(OC)c(OC)c1	·	·	0.73	0.1	9	2.3	2	·	·	·
48	COc1cccc(-c2nnc(NC(=O)c3ccc(S(=O)(=O)N(CC(C)C)CC(C)C)cc3)o2)c1	·	·	0.7	-0.4	65	-149	·	·	·	·

Sorted by formula weight (rising): 4 of the compounds above.
cpd	canonical_smiles	FGF22 binding	MLL AF4-AF9 inh	E coli growth	A1 inh	Beta cell apopt	UCH37 DUB inh	T cruzi inh	Ecoli rRNA inh	Ecoli rRNA inh OD600	Ecoli rRNA inh RFP
41	COc1ccc(NC(=O)CC2SC(=Nc3ccccc3)NC2=O)cc1 (centres undefined)	·	·	0.72	1.0	-6	1.5	0	·	·	·
39	COc1ccc(NC(=O)C(=O)NCC2CCCN2S(=O)(=O)c2cccs2)cc1 (centres undefined)	i	0.8	0.72	0.1	·	1.0	7	8	3	-2.1
38	Cc1cc(C)nc(SCC(=O)Nc2ccc(S(=O)(=O)Nc3nccs3)cc2)n1	·	·	0.67	1.3	·	2.8	-14	·	·	·
48	COc1cccc(-c2nnc(NC(=O)c3ccc(S(=O)(=O)N(CC(C)C)CC(C)C)cc3)o2)c1	·	·	0.7	-0.4	65	-149	·	·	·	·

More structures
cpd	canonical_smiles	FGF22 binding	MLL AF4-AF9 inh	E coli growth	A1 inh	Beta cell apopt	UCH37 DUB inh	T cruzi inh	Ecoli rRNA inh	Ecoli rRNA inh OD600	Ecoli rRNA inh RFP
49	Clc1ccccc1CN1CCN(/N=C/C=C\c2ccco2)CC1	i	8.8	·	0.4	1	·	20	9	7	2.8
50	COc1cccc(NC(=O)CSc2ccc3nnc(-c4ccncc4)n3n2)c1	i	-0.8	0.72	0.7	1	3.2	18	11	11	0.8
51	COc1cccc(N(C(=O)c2ccco2)C(C(=O)NC2CCCC2)c2ccc(N(C)C)cc2)c1 (centres undefined)	·	·	0.75	0.0	-2	-1.9	1	·	·	·
52	Cc1oc(-c2ccccc2Cl)nc1CS(=O)(=O)CC(=O)NCCN1CCOCC1	i	-2.2	0.7	0.4	0	4.5	-22	0	10	0.2
53	Cc1noc(C)c1CSCC(=O)N(C)CC(=O)Nc1ccccc1C(F)(F)F	i	-3.8	0.67	-0.1	-8	1.0	·	·	·	·
